Screening data deposited in PubChem by several laboratories.
ALR inh: inhibitors of human sulfhydryl oxidase ALR; inhibition, % (no concentration beside the values); purified ALR, DTT oxidation, H2O2 HRP-luminol luminescence; 290,000 compounds, 3.8% hits; P55789;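 active = mean and each replicate at 75% or more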;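 note: stock transfer was 7.5 nL into about 7.5 µL; 0% = neutral wells and 100% = wells with inactivated enzyme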
Target sequence (P55789 whole entry, looked up): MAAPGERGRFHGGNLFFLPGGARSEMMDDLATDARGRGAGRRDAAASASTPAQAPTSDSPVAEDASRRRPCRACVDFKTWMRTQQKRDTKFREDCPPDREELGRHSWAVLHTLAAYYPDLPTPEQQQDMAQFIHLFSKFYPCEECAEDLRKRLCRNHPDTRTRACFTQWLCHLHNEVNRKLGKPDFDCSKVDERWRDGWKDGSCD
UCH37 DUB inh: blocks the human deubiquitinase UCH37; Q9Y5K5; AID 588478; 330,000 compounds, 0.33% hits; inhibition, % (no concentration beside the values); purified proteasome/UCH37, Ub-AMC cleavage fluorescence;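 active = mean of two replicates above 20%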;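 note: 0% = compound-free wells with enzyme and 100% = wells lacking proteasome; stock transfer was 100 nL into about 20 µL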
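system = Proteasome-associated human UCH37 deubiquitinase | amount = 0.15 nM proteasome as dispensed | medium = pH 7.4 Tris-HCl (50 mM) with ovalbumin, ATP-MgCl2, DTT | incubation = 30 min preincubation with enzyme, 25 min cleavage at room temperature | detection = AMC fluorescence 355/460 nm | read-out basis = percent inhibition | controls = no-proteasome and no-compound wells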
rRNA inh HTS: inhibitors of bacterial rRNA selective over humanized ribosomes; AID 720706; 350,000 compounds, 1.6% hits; GFP signal change (wild-type ribosome), % (concentration not given with the values); E. coli WT GFP vs humanized-ribosome RFP mutants, fluorescence, 24 h; active compounds read low; DMSO median 0, no signal -100;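 active = significant combined selectivity score with lowered wild-type GFP, culture density cut under 30%, mutant RFP and density less affected; inactive = any of these conditions unmet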; note: one replicate is shown; some compounds called inactive have numbers as strong as hits
E coli growth: blocks Escherichia coli growth; OD600, 23 h; active compounds read low; OD600 absorbance (test concentration not listed); 330,000 compounds, 0.21% hits;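 active = OD600 absorbance below the run mean of sample wells minus 3.6 SD, in any replicate, cut at about 0.56 in these data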;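 note: stock transfer was 300 nL into about 60 µL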
HNF4A DNA FP: change in binding of human HNF4 alpha to DNA | activity change, % at 10 µM | 360,000 compounds, 0.3% hits | HNF4a-FITC DNA binding, fluorescence polarization, 1 h | P41235; in the data active = activity change above about 30%, passing the limit was not always enough;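 note: controls were the assay level and a saturating level of protein; the project sought stronger binding though the title names inhibitors; some compounds called inactive have numbers as strong as hits; positive values seem to mean higher polarization but the record does not say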
B2AR ag: activates human beta-2 adrenergic receptor causing internalization | response, % (no concentration beside the values) | P07550 | AID 504454 | 340,000 compounds, 0.43% hits | Am2.2-beta2AR cells, FAP receptor internalization, flow cytometry; reference of the scale not given here;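 active = response above a set limit, near 3 SD of response in nonfluorescent compounds, cut at about 42% in these data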;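 note: stock transfer was 100 nL into about 11 µL; a reference agonist was the positive control; negative values mostly stem from fluorescent compounds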
Target sequence (P07550 whole entry, looked up): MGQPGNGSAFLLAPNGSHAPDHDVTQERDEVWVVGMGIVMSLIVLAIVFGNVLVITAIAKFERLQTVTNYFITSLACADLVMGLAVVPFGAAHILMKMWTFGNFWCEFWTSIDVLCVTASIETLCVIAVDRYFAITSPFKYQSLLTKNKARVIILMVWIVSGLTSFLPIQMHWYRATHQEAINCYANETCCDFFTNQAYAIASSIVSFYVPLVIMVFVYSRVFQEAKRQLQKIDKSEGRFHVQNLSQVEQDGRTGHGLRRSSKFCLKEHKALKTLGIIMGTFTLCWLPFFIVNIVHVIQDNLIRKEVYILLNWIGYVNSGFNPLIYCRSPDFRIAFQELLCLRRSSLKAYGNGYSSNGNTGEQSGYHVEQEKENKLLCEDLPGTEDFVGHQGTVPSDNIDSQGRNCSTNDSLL
FGF22 binding: binders of recombinant human FGF22 by thermal shift | Q9HCT0 | SYPRO orange fluorescence; percent of sucrose octasulfate shift, DMSO zero | calls only at 9.99 µM | 340,000 compounds, 1.5% hits | AID 651658;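 active = melting point raised past a set limit in the mean and every replicate; three in four hits are not shown here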
Target sequence (Q9HCT0 whole entry, looked up): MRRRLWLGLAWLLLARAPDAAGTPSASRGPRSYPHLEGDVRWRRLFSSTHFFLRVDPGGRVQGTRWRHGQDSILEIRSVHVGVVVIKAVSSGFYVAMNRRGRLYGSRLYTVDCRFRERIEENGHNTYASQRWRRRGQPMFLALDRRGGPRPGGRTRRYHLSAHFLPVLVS
rRNA inh HTS OD600: further read-out of rRNA inh HTS, marked with its call; OD600 change, %; measured here: OD600 growth;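 optical density of the mix in the first replicate; 0 = DMSO median and -100 = no signal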
rRNA inh HTS RFP: further read-out of rRNA inh HTS, marked with its call; RFP signal change, %; measured here: RFP humanized mutant strains;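 first replicate; 0 = DMSO median and -100 = no signal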
Starred values were filed as active, the others as inactive; i = inactive; nt = no result given.

smiles,ALR inh,UCH37 DUB inh,rRNA inh HTS,rRNA inh HTS OD600,rRNA inh HTS RFP,E coli growth,HNF4A DNA FP,B2AR ag,FGF22 binding
CCOC(=O)c1c(C)[nH]c(C)c1C(=O)CN1C(=O)NC(CC(C)C)C1=O (stereo not drawn),3.6,0.1,nt,nt,nt,0.671,-1.6,-0.1,nt
Cc1ccc(CC2(C)C(=O)Nc3c(Cl)ccc(Cl)c32)cc1 (stereo not drawn),nt,nt,-28.5,-40.4,-10.7,nt,0.5,nt,i
COc1ccc(/C=C(\NC(=O)c2ccc(Cl)cc2)C(=O)NCc2cccnc2)cc1OC,nt,nt,3.0,-13.5,-11.5,nt,5.3,nt,i
COc1ccc(C(=O)Nc2ccc(S(=O)(=O)NCc3ccco3)cc2)cc1OC,-15.5,0.4,nt,nt,nt,0.638,-5.3,9.5,nt
CCc1ccccc1N(C)S(=O)(=O)c1cc(-c2cc(C)no2)ccc1OC,-2.2,2.6,0.2,-25.6,-0.5,0.717,0.6,-13.9,i
COc1ccc(N2CCN(C(=O)CN(c3cccc(OC)c3)S(=O)(=O)c3ccccc3)CC2)cc1,37.9,1.7,-23.3,-20.6,0.6,0.704,-0.3,4.5,i
OC(COc1ccc(F)cc1)CN1CCN(c2ccccc2F)CC1 (stereo not drawn),2.2,1.6,-1.0,0.9,2.1,0.594,3.3,-5.5,i
NC(=O)CSc1nnc(SCc2ccc(F)cc2)s1,-2.7,2.4,11.2,4.6,-1.2,0.621,-5.2,-2.4,i
COc1cc2c(cc1NC(=O)c1cc(-c3ccncc3)nc3ccccc13)oc1ccccc12,-1.9,4.3,0.0,17.4,-0.8,0.667,16.1,27.7,i
CCC1(C)CC(=O)N(c2ccc(C(=O)O)c(O)c2)C1=O (stereo not drawn),0.2,-1.8,nt,nt,nt,0.74,-2.6,-10.1,nt
Cc1cc(C(=O)Nc2c(C)cccc2C)n(-c2ccccc2)n1,-11.1,2.1,1.1,2.9,-0.3,0.765,-1.9,3.8,i
O=C1c2ccc(-c3ccc(Cl)c(C(F)(F)F)c3)cc2S(=O)(=O)c2cccc(C(=O)N3CCN(c4ccc(Cl)cn4)CC3)c21,0.3,3.3,4.4,6.7,2.8,0.704,-4.4,-12.1,i

Not a retest: entries from further up.
smiles,ALR inh,UCH37 DUB inh,rRNA inh HTS,rRNA inh HTS OD600,rRNA inh HTS RFP,E coli growth,HNF4A DNA FP,B2AR ag,FGF22 binding
CCOC(=O)c1c(C)[nH]c(C)c1C(=O)CN1C(=O)NC(CC(C)C)C1=O (stereo not drawn),3.6,0.1,nt,nt,nt,0.671,-1.6,-0.1,nt
Cc1ccc(CC2(C)C(=O)Nc3c(Cl)ccc(Cl)c32)cc1 (stereo not drawn),nt,nt,-28.5,-40.4,-10.7,nt,0.5,nt,i
COc1ccc(/C=C(\NC(=O)c2ccc(Cl)cc2)C(=O)NCc2cccnc2)cc1OC,nt,nt,3.0,-13.5,-11.5,nt,5.3,nt,i

(list continues)
smiles,ALR inh,UCH37 DUB inh,rRNA inh HTS,rRNA inh HTS OD600,rRNA inh HTS RFP,E coli growth,HNF4A DNA FP,B2AR ag,FGF22 binding
Cc1ccccc1OCC(=O)Nc1nnc(C2CCCC2)s1,-0.7,0.1,2.6,11.8,-1.7,0.713,-1.0,-6.6,i
O=C(C(Sc1ccccc1)c1ccccc1)N1CCOCC1 (stereo not drawn),-4.8,0.8,nt,nt,nt,0.704,2.8,-1.8,nt
Cc1cc(C)n(-c2ccc(C(=O)OCC(=O)Nc3cc(S(C)(=O)=O)ccc3Cl)cc2)n1,-1.3,1.8,10.6,8.1,0.3,0.702,-0.4,-6.3,i
Cc1nnc(SCC(=O)c2ccccc2)n1Cc1ccccc1,84.8*,2.8,nt,nt,nt,0.631,-1.2,-22.7,nt
COc1ccc(-c2nn(-c3ccccc3C)cc2CNC(C)c2cn(C)nc2C)cc1F (stereo not drawn),nt,3.1,5.2,0.8,-5.6,0.671,3.5,0.8,i
Cn1nnnc1SCC(=O)Nc1ccc(N2CCOCC2)cc1,14.9,4.2,4.3,-11.1,-0.8,0.747,-2.1,0.1,i
Cc1ccccc1NC(=O)COC(=O)c1cccnc1,-0.1,1.5,37.5,19.8,3.9,0.657,-1.1,2.1,i
CCn1cc(C(=O)N2CCCC(C(=O)c3ccc4ccccc4c3)C2)cn1 (stereo not drawn),-5.5,-17.1,-4.4,-19.3,1.4,0.692,6.9,-1.0,i
COc1ccc(-n2nc(C(=O)NCC(=O)N(C)Cc3ccccc3)c3ccccc3c2=O)cc1OC,-7.3,-0.8,-5.7,-16.4,-2.5,0.687,2.3,2.2,i
CC(C)CC(C(=O)OCC(=O)c1c(N)n(C)c(=O)n(C)c1=O)N1C(=O)C2CC=CCC2C1=O (stereo not drawn),8.4,-0.3,-14.0,-4.2,1.1,0.726,-0.1,-1.7,i
COc1ccc(CCN2CC(C(=O)NCc3cc(C)on3)CCC2=O)cc1 (stereo not drawn),nt,4.3,-0.3,0.9,-2.9,0.704,2.7,-3.7,i
Cc1ccc(C)c(-c2nnc(NC(=O)CCS(=O)(=O)c3ccc(F)cc3)o2)c1,-7.7,0.1,-1.2,-0.6,-5.8,0.64,2.1,1.9,i
CCNC(=S)Nn1cnc2ccccc21,21.2,1.9,15.9,4.3,-6.0,0.722,-1.9,3.0,nt
O=C(NCCn1c(C(F)(F)F)nc2cc(C(F)(F)F)ccc21)[C@H]1CCCN1c1nc(CN2CCCCC2)cs1,-8.7,1.7,nt,nt,nt,0.809,1.7,1.9,nt
COc1ccc(CN(C)C(=O)CCc2ccc(S(=O)(=O)N3CCCCCC3)cc2)c(OC)c1,nt,-1.1,-2.2,-25.9,8.6,0.668,-2.9,8.5,i
O=C(O)/C=C/C(=O)Nc1ccc2nccnc2c1,-9.4,-129.4,16.3,11.9,0.8,0.715,0.7,-1.9,i
CC1CC(C)CN(S(=O)(=O)c2ccc(C(=O)N(c3ccccn3)C3CCCCC3)cc2)C1 (stereo not drawn),-14.0,4.3,-16.6,-29.5,-0.8,0.702,-0.5,7.3,i
Cc1cccc(NS(=O)(=O)c2cccc(C(=O)NCC3(N4CCOCC4)CCCCC3)c2)c1,nt,0.6,-0.2,-8.8,4.4,0.661,-0.4,0.6,i
Cc1cccc(N2C(=O)CCC2=O)c1,-8.2,-1.2,nt,nt,nt,0.709,4.5,7.0,nt
CCN(C(=O)Cn1nnc(-c2ccccc2)n1)C1CCS(=O)(=O)C1 (stereo not drawn),-4.9,1.9,2.1,9.1,-0.5,0.652,-0.9,5.0,i
Cc1nc2cc(NC(=O)COc3ccccc3C#N)ccc2n1-c1ccccc1,-1.6,0.0,nt,nt,nt,nt,2.6,-20.8,nt
COc1ccc(NC(=O)c2ccc(S(=O)(=O)N(C)c3ccccc3)cc2)cn1,nt,-0.8,-4.3,6.7,4.6,0.718,-3.4,1.6,i
CC(=O)N1N=C(c2ccccc2O)OC1(C)CC(=O)Nc1ccccc1 (stereo not drawn),nt,-9.4,nt,nt,nt,0.652,0.0,2.4,nt
CC(=O)c1c(C)[nH]c(C(=O)OCC(=O)N(Cc2ccccc2)C(C)(C)C)c1C,nt,2.2,-21.6,-35.8,-4.5,0.653,2.7,-3.3,i
Cc1ccc(CNCc2ccc3c(c2)OCO3)cc1,-2.3,2.1,1.6,-0.2,3.9,0.616,3.8,-2.0,i
CC(=O)Oc1c(C)c(=O)n(C)c2ccccc12,8.6,2.5,4.6,9.3,-2.4,0.662,-3.0,0.6,i
O=C(CNC(=O)c1ccccc1)OCc1nnc(-c2ccccc2)o1,-2.1,3.3,0.7,-0.4,-0.3,0.646,1.3,3.3,nt
COC(=O)c1ccc(Oc2cc(C)nc(Cl)n2)cc1,2.1,2.3,3.6,0.7,-2.8,0.699,0.4,-0.7,i
CCCC(=O)OCC(=O)Nc1ccc(OC(F)F)cc1,-2.7,2.7,nt,nt,nt,0.654,-1.2,8.8,nt
Cc1ccc(S(=O)(=O)CCC(=O)OC(C)c2nnc(-c3cccs3)o2)cc1 (stereo not drawn),nt,3.8,nt,nt,nt,0.663,-0.1,3.6,i
COc1cc(NC(=O)CSCC(=O)Nc2cc(OC)cc(OC)c2)cc(OC)c1,15.9,4.2,nt,nt,nt,0.751,nt,nt,nt
Cc1c(N2C(=O)C(C)SC23C(=O)Nc2ccccc23)c(=O)n(-c2ccccc2)n1C (stereo not drawn),-2.7,1.8,nt,nt,nt,0.672,1.8,-0.3,nt
CCN(C1CCCCC1)S(=O)(=O)c1cn(C)c(=O)n(C)c1=O,-2.9,2.9,0.6,-8.5,-9.7,0.783,-2.5,-7.9,i
Cn1nc(C(=O)Nc2ccc(S(=O)(=O)N3CCCCC3)cc2)ccc1=O,-6.8,2.9,nt,nt,nt,0.749,-1.3,-0.8,nt
O=C(CNCc1ccccc1Cl)Nc1ccc2c(c1)OCCO2,-0.9,4.8,-3.9,2.0,-3.9,0.618,1.0,9.7,i
Cc1ccc(NC(=O)C(=O)NCc2ccco2)c(C)c1,nt,3.2,-5.8,-5.5,1.8,0.719,0.8,3.2,i
CCn1cc(/C=C(\NC(=O)c2ccccc2)C(=O)N2CCOCC2)c2ccccc21,nt,13.9,-5.5,-8.0,0.7,0.704,-1.0,-4.8,i
COc1cccc(-c2nnc(SCc3nc4ccccc4s3)n2C)c1,nt,-2.4,nt,nt,nt,0.718,0.5,-2.4,nt
CCc1cccc2c(C(=O)COC(=O)/C=C/c3ccccc3OC)c[nH]c12,-7.6,-1.0,-9.2,3.8,-0.3,0.737,1.8,1.8,i
O=C(NCc1ccc2c(c1)OCO2)c1ccc2c(c1)S(=O)(=O)c1ccccc1C2=O,nt,-1.4,-8.8,-9.1,-3.8,0.729,-4.4,5.3,i
CCOc1ccc(C(=O)NCC(c2cccs2)N(C)C)cc1OCC (stereo not drawn),-16.6,1.6,nt,nt,nt,0.67,-0.3,6.2,nt
Cc1nn(CC(=O)NCCCN2CCOCC2)c(C)c1[N+](=O)[O-],-15.7,0.7,31.8,11.2,4.7,0.706,7.4,-2.7,i
COC(=O)c1cc(S(=O)(=O)NC2CCCCC2)cn1C,5.5,1.3,14.5,7.1,0.2,0.732,-2.1,-1.9,i
CCOC(=O)c1c(C)n(C)c2cc(Br)c(C)cc12,nt,2.0,nt,nt,nt,0.673,-1.2,6.8,nt
O=C(CC1CCCCC1)NCc1ccccn1,nt,2.9,nt,nt,nt,0.706,2.9,-7.0,nt
Cc1cccc(N(C(=O)c2csnn2)C(C(=O)NC(C)(C)C)c2cccs2)c1 (stereo not drawn),2.5,0.2,3.5,5.1,-2.0,0.649,1.2,-5.3,i
CC(C)Cn1cc(C(=O)N2CCOCC2)c2c3ccccc3n(C)c2c1=O,-1.2,-117.7,nt,nt,nt,0.693,2.0,-7.2,nt
Cc1ccc(SC[C@H](C)CN2CC[C@H](C)CCC2=O)cc1,-2.0,nt,-10.1,-14.1,-4.6,nt,-1.5,-6.1,i
CC(=O)NC1=NN(C(C)=O)C(c2ccc(C)cc2)S1 (stereo not drawn),-27.7,2.3,4.4,1.8,2.0,0.691,-1.4,-0.8,i
O=C(COC(=O)c1cc(S(=O)(=O)N2CCOCC2)ccc1F)c1ccccc1,-1.3,3.7,17.4,12.4,0.2,0.709,3.3,8.0,i
COc1cccc(C2C=C(Nc3ccccc3)C(=O)N2c2ccccc2)c1 (stereo not drawn),nt,-18.5,13.1,9.6,2.9,0.664,-2.9,-13.7,i

A portion of the library; count on the stated rates, not on these rows.
